# Arbovirus anti – antivirals against arbovirus infection | inhibition, % at 10 µM | arbovirus infection cell-based antiviral screen | 200,000 tested, 0.37% active | AID 1251;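 active means inhibition from about 30%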;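 further: bluetongue infection of BSR cells; cell survival read as ATP light after 72 h; 0% = infected wells without compound and 100% = uninfected wells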
# Mtb betalactam – beta-lactam sensitization of Mtb H37Rv; 330,000 tested, 0.27% active; M. tuberculosis H37Rv growth with meropenem, percent inhibition; hits of this screen are not shown here; AID 434955; inhibition, % at 25 µM;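 active means about 74% or more and at least 40 points above the plate without the antibiotic, then above 30% in a dose series; inconclusive means first-round hits that could not be retested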;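 further: growth measured after seven days incubation then overnight dye step; 0% = bacteria only wells and 100% = bacteria with antibiotic; twin plates without the antibiotic show which effects depend on it; some results filed as inactive read as strong as hits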
# Mtb growth – M. tuberculosis H37Rv growth inhibitors, H37Rv strain (AID 1626); M. tuberculosis H37Rv growth inhibition; higher % means a stronger effect; inhibition, % at 10 µM, or IC50 in µM where a hit was titrated; 220,000 tested, 0.95% active;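 active means confirmed in a dose series; inconclusive means inhibition above 80% but not taken into the dose series; inactive means below 80% or under 30% at every dose of the series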;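 further: bacteria incubated seven days before Alamar blue readout; 0% = bacteria only wells and 100% = bacteria with antibiotic wells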
# YopH PTP inh – YopH (Yersinia) phosphatase inhibition | fluorescence Ex485/Em525 | inhibition, %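 (about 10 µM by stock and volumes)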 | 140,000 tested, 0.16% active | AID 898;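 active means inhibition of 50% or more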;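 further: controls were vehicle for no effect and minimum signal wells for full effect; inactives centre near -20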
# RecA splice inh – blocks M. tuberculosis RecA intein splicing | P9WHJ3 | cell-free RecA intein splicing, fluorescence | inhibition, %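 (about 9 µM by stock and volumes)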 | 290,000 tested, 0.75% active | AID 2221; in the data active means inhibition above about 30%; inconclusive means no clear call, values can overlap the other calls;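 further: 0% = vehicle wells and 100% = reference inhibitor control wells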
# Target sequence (P9WHJ3 whole entry, looked up, canonical isoform): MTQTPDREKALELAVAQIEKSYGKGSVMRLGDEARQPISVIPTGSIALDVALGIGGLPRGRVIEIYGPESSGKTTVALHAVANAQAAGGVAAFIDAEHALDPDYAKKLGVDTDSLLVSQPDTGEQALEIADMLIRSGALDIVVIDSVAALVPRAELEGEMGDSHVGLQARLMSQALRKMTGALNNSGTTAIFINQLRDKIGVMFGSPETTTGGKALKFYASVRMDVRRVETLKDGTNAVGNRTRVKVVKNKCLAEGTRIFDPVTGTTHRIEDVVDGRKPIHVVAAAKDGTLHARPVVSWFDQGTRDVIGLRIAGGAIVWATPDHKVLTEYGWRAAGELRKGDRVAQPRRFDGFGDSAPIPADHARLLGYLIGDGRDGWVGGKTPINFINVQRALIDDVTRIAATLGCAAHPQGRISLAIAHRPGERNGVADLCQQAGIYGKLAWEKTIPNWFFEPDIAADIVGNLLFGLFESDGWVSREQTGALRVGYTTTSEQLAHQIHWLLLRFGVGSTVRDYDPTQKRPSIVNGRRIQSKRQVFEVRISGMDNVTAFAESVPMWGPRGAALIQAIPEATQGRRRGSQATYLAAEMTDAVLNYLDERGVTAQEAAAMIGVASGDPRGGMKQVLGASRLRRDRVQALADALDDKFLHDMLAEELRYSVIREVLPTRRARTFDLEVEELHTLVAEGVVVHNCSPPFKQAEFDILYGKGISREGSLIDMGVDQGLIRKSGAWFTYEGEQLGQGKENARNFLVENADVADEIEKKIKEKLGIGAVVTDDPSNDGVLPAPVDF
# Arbovirus anti repeat – second read-out of Arbovirus anti, no call of its own (marks repeat the call); inhibition, %; measured here: 10K subset replicate screen; many hits read low in the repeat;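 first of two repeat runs on a subset; 0% = infected and 100% = uninfected wells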
# * marks the source's active call; other numbers are inactive results; ? = inconclusive; · = no result given. Only part of the results is shown; the hit share may differ from the screen's.
SMILES,Arbovirus anti,Mtb betalactam,Mtb growth,YopH PTP inh,RecA splice inh,others
Cc1c(OCC(=O)NCCCN2CCCC2=O)ccc2c3c(c(=O)oc12)CCC3,·,-3,·,·,0.0,
Cc1cc2nnc(SCC(=O)Nc3cccc(S(=O)(=O)N4CCOCC4)c3)n2c2ccccc12,12,6,-2%,-15,-3.5,
COC(=O)C1=NNC2(c3ccc(C)cc3)C(=O)N(c3cccc(C)c3C)C(=O)C12 (centres undefined),4,-7,-8%,-28,-10,
CCCN(CC(=O)Nc1ccc(F)c(F)c1F)Cc1cc(=O)n2ccsc2n1,-1,-2,-1%,·,-1.1,
Cc1onc(-c2c(Cl)cccc2Cl)c1C(=O)Nc1ccc2c(C(F)(F)F)cc(=O)oc2c1,·,1,3%,·,-15,
COc1cccc(N=Cc2nc(-c3ccccc3)oc2OC(C)=O)c1,·,3,-4%,·,1.1,
CCN(CC)Cc1cc(NC2=NS(=O)(=O)c3ccccc32)ccc1OC(=O)c1ccccc1,-2,12,-5%,-13,12,
O=C(O)Cn1nnnc1SCC(=O)Nc1ccc(OC(F)(F)F)cc1,-1,-12,0%,-27,-0.9,
CN1CCCC(OC(=O)c2cc(Cl)cc(Cl)c2)C1 (centres undefined),2,-5,12%,·,2.4,
O=C(NCCCNc1ccnc2cc(Cl)ccc12)c1ccccc1F,·,-7,·,·,-0.1,
O=c1[nH]c2ccccc2cc1CN(Cc1ccco1)S(=O)(=O)c1ccccc1,·,-2,·,·,-0.4,
CC(C)(C)NC(=O)Nc1nnc(SCC(=O)NC2CCCCC2)s1,·,-12,·,·,-1.4,
CCCCC(=O)Nc1ccc2c(c1)OCCO2,2,4,13%,6,2.2,
C(=C\c1ccccc1)/CN1CCN(Cc2ccc3c(c2)OCCO3)CC1,8,·,1%,8,2.5,
S=C1CN=C(c2ccccc2Cl)c2cc(Cl)ccc2N1,-14,61,·,-8,-7.4,
O=C(CN1CCN(Cc2ccc(F)cc2)CC1)Nc1ccccc1F,·,10,·,·,-3.1,
CN(C)CCCNC(=S)NCCNc1nc2cc3c(cc2cc1C#N)OCO3,23,11,-8%,·,-93,
Cc1oc(C)c(C(N)=O)c1C(N)=O,5,-8,1%,-45,1.3,
Cc1ccn2cc(CCNC(=O)c3ccc(Br)o3)nc2c1,-7,0,5%,-28,1.9,Arbovirus anti repeat=-4
O=C(c1ccc([N+](=O)[O-])c(CS(=O)(=O)c2ccc(Cl)cc2)c1)N1CCCC1,15,-1,-1%,·,0.7,
Cc1cc(C)nc(N/N=C/c2cc(Br)ccc2O)n1,·,94,?,·,-4.1,
CCOC(=O)C(=CNc1cc(OC)ccc1-n1cccc1)C(=O)OCC,·,-4,-3%,·,1.8,
Cc1ccn2c(=O)nc(SCC(=O)N3CCCCC3)nc2c1,·,-1,·,·,-0.2,
CC(=O)c1ccc(Nc2c(C)n(C)n(-c3ccccc3)c2=O)cc1,-1,-1,-10%,·,-2.6,
COc1ccc(/C=C/C(=O)NC(C)CCc2ccccc2)cc1 (centres undefined),7,13,1%,-7,5.9,

# Going on with the list.
SMILES,Arbovirus anti,Mtb betalactam,Mtb growth,YopH PTP inh,RecA splice inh,others
O=S(=O)(/C=C/c1ccccc1)Nc1ccc(F)cc1,11,4,5%,·,0.5,
COC(=O)c1cccn(CC(=O)c2ccc(Cl)cc2Cl)c1=O,4,-6,-1%,·,-0.4,
COC(C/C=C\[C@@H](O)[C@@H](C)OCc1ccccc1)OC,·,0,-4%,·,-0.4,
Cc1cccc(N/C=C/c2onc(C)c2[N+](=O)[O-])c1,0,0,-2%,-63,1.8,
CCc1nnc(NCn2nc(C)cc2C)s1,1,0,-6%,-6,-1.9,
CCOc1ccc(CCNC(=O)COC(=O)c2ccc(S(C)(=O)=O)cc2)cc1OCC,·,-15,·,·,-0.5,
CC1(C)CC(NC(=O)c2cccc(S(=O)(=O)N(Cc3ccccc3)c3ccccc3)c2)CC(C)(C)N1,·,-13,·,·,1.8,
O=C(CN1C(=O)COc2ccc(Cl)cc21)Nc1ccc2c(c1)OCCO2,10,?,0%,-16,1.0,
CSc1nnc(N2C(=O)C(O)=C(C(=O)c3ccco3)C2c2ccccc2F)s1 (centres undefined),·,15,·,·,0.3,
CCCCOc1ccccc1NC(=O)CC1Nc2ccccc2NC1=O (centres undefined),4,-2,4%,·,2.3,Arbovirus anti repeat=4
Cc1nn(Cc2ccccc2Cl)c(C)c1C(=O)NCc1ccco1,1,-2,-2%,-54,-1.2,
COc1cccc(C(=O)O/N=C2\CCS(=O)(=O)c3sccc32)c1,1,0,-1%,·,1.4,
COc1ccc2[nH]c(=O)c(CN(c3ccccc3OC)S(=O)(=O)c3ccccc3)cc2c1,·,-4,·,·,0.9,
CCCCC1=NN(C(=O)c2cccnc2)C(O)(C(F)(F)F)C1 (centres undefined),·,-7,1%,·,-0.3,
COc1ccc(C2=NOC(COc3ccc4c(C)cc(=O)oc4c3)C2)c(OC)c1 (centres undefined),·,56,0%,·,0.5,
Cc1cc(NC(=O)Cn2nc(C(F)(F)F)c3c2CCC3)n(-c2ccccc2)n1,-1,-23,-11%,-44,1.1,
COc1ccccc1CN(CC(=O)NCc1ccc2c(c1)OCO2)C(=O)c1ccc2c(c1)OCCO2,-8,-4,11%,-16,-4.6,
CCOC(=O)N1CCN(C(=O)Cn2ncn3nc(-c4cccs4)cc3c2=O)CC1,1,36,5%,-24,2.6,
COc1ccc(CCN(C)C(=O)C2CCN(Cc3ccc(C)cc3)CC2)cc1OC,-6,3,0%,·,-2.4,
CS(=O)(=O)N(CC(N)=O)c1ccc(F)c(Cl)c1,-3,-1,-13%,-15,0.1,
Nc1nnnn1/N=C/c1cccc(OCc2ccccc2Cl)c1,2,-31,0%,4,1.0,
CCN(CC)CCNC(=O)c1c(C)oc2cc(Br)c(OC)cc12,-3,-10,1%,-23,·,
O=C(c1ccc(Cl)cc1)N1CCN=C1c1ccccc1,11,-4,8%,-25,-1.9,
Oc1c(C=Nc2ccccc2)sc2ccccc12,-1,-4,-10%,·,1.0,
O=C(O)CSc1nnc(COc2ccc(Br)cc2)n1-c1ccccc1,·,-1,·,·,0.7,

# Four entries drawn at random from those above, as already listed:
SMILES,Arbovirus anti,Mtb betalactam,Mtb growth,YopH PTP inh,RecA splice inh,others
CCN(CC)CCNC(=O)c1c(C)oc2cc(Br)c(OC)cc12,-3,-10,1%,-23,·,
Oc1c(C=Nc2ccccc2)sc2ccccc12,-1,-4,-10%,·,1.0,
COc1ccccc1CN(CC(=O)NCc1ccc2c(c1)OCO2)C(=O)c1ccc2c(c1)OCCO2,-8,-4,11%,-16,-4.6,
O=C(O)Cn1nnnc1SCC(=O)Nc1ccc(OC(F)(F)F)cc1,-1,-12,0%,-27,-0.9,

# Filtered by structure: those above containing a nitro group on carbon (2)
SMILES,Arbovirus anti,Mtb betalactam,Mtb growth,YopH PTP inh,RecA splice inh,others
O=C(c1ccc([N+](=O)[O-])c(CS(=O)(=O)c2ccc(Cl)cc2)c1)N1CCCC1,15,-1,-1%,·,0.7,
Cc1cccc(N/C=C/c2onc(C)c2[N+](=O)[O-])c1,0,0,-2%,-63,1.8,

# More compounds follow.
SMILES,Arbovirus anti,Mtb betalactam,Mtb growth,YopH PTP inh,RecA splice inh,others
O=C(Nc1nc(-c2ccccc2)cs1)c1ccco1,·,-3,6%,·,5.5,
Cc1ccccc1NCCNc1ccccc1C,1,0,5%,-11,11,
Cn1c2ccccc2c(=O)c2c(=O)n(Cc3ccco3)c(-c3ccc(Cl)cc3Cl)nc21,·,88,43%,·,5.9,
CCOc1ccc(NC(=O)c2cc3cc4ccc(C)cc4nc3o2)cc1,-15,4,62%,·,-1.0,
Cc1cc(=O)oc(C)c1C(=O)NCCCN1CCN(c2ccc(F)cc2)CC1,1,-11,-5%,-20,0.5,
CC(=O)c1c(C)oc2ccc(NS(=O)(=O)c3ccc(C)cc3)cc12,·,-8,·,·,-3.4,
COc1ccc2c(=O)c3c(=O)n(CCc4ccccc4)c(C(C)C)nc3oc2c1,·,-5,-6%,·,6.6,
CC1(C)CC(=O)c2cc(O)ccc2O1,2,-2,1%,-40,-3.7,
COc1ccc(C(=O)Nc2ccc(OC)c([N+](=O)[O-])c2)cc1Br,-4,0,0%,·,1.0,
COc1ccccc1CNC(=O)C1CC2Cn3c(nc4ccccc43)C2N1C (centres undefined),·,-3,-11%,·,-1.0,
OC(COc1cccc2ccccc12)CN1CCN(c2ccccc2)CC1 (centres undefined),·,5,·,·,3.5,
CCCNS(=O)(=O)c1ccc(OCC(=O)N2CCN(Cc3ccc4c(c3)OCO4)CC2)cc1,9,-4,4%,-14,0.1,
CC(=O)N1CCN(CC(=O)Nc2c(Cl)cccc2Cl)CC1,2,0,0%,-28,3.7,
N#C/C(=C\c1cn[nH]c1-c1ccccc1Br)C(=O)O,0,0,0%,·,4.1,
COc1ccc(CCNC(=O)COC(=O)c2ccc[nH]c2=O)cc1,5,2,-7%,-7,1.2,
C=CCN1C(=O)/C(=C2\SC(N3CCOCC3)=NC2=O)c2cc(Br)ccc21,2,22,0%,-19,-0.4,
O=C(NCc1ccccc1Cl)c1ccc(Br)o1,0,2,7%,·,0.5,
COC(=O)NNC(=O)CCCOc1ccc(Cl)cc1Cl,14,-1,-6%,-16,0.4,
O=C(c1ccco1)N(Cc1ccc([N+](=O)[O-])cc1)c1ccc(Br)cc1,-11,8,-14%,-64,17,
Cc1cc(=O)oc2cc(Oc3ncccn3)ccc12,-4,-3,-2%,-11,-1.7,
COc1cc2[nH]c(=S)n(Cc3ccc(F)cc3)c(=O)c2cc1OC,-18,1,1%,·,-1.0,
Cn1nc(-c2ccc(C(=O)NCC3CCCO3)cc2)c2ccccc2c1=O (centres undefined),·,-7,1%,3,-4.2,
O=C(CCc1nc2sc3c(c2c(=O)[nH]1)CCCC3)NCCOc1ccccc1,·,-6,·,·,-3.8,
COc1cccc(NC(=O)CCC2CCN(C(=O)c3sccc3C)CC2)c1,·,-9,·,·,1.5,
CCNC(=S)N1CCN(S(=O)(=O)c2cccc(C(F)(F)F)c2)CC1,5,-3,-2%,-21,-8.5,

# (listing goes on)
SMILES,Arbovirus anti,Mtb betalactam,Mtb growth,YopH PTP inh,RecA splice inh,others
CC(C)(C)Cc1nnc(NS(=O)(=O)c2ccc(F)cc2)s1,4,-2,4%,-8,-2.9,
CCCn1c(C)cc(-c2csc(NC(=O)CCc3nc4ccccc4c(=O)[nH]3)n2)c1C,·,-6,·,·,-0.1,
CCCCCCc1ccc(N2C[C@H](C)[C@@H](CC(=O)NCc3ccccc3)C2=O)cc1,·,91,·,·,-4.2,
O=C(CSCc1ccccc1Cl)NN=C1CCCCCC1,-8,-3,-3%,-50,1.7,
CC(C)(C)c1cc(NCc2ccccn2)n2ncc(-c3ccc(Cl)cc3)c2n1,·,99,0.66µM*,·,0.8,
CCOC(=O)C1CCN(C(=O)c2cccc(NC3=NC4CS(=O)(=O)CC4S3)c2)CC1 (centres undefined),·,6,·,·,1.5,
Cc1cc(C)n2nc(-c3cccnc3)nc2n1,-1,4,-9%,-1,0.1,
CC(NC(=O)NC1CCCCC1)C(c1cccs1)N1CCN(c2ccccc2)CC1 (centres undefined),-6,5,16%,-43,9.3,
COc1cccc(N/C=C/c2onc(C)c2[N+](=O)[O-])c1,-9,-2,2%,·,-1.7,
COc1ccc(-n2c(=O)cc(N3CCN(c4ccccc4OC)CC3)[nH]c2=O)cc1,2,-10,-9%,-14,·,
Cc1ccccc1-n1c(O)c(/C=N/Nc2nc3c(c(=O)n(C)c(=O)n3C)n2C)c(=O)[nH]c1=S,5,-2,3%,-8,-137,
COc1ccc(Nc2nc(CC(C)=O)ns2)cc1,-4,1,2%,-11,-0.3,
COc1cc(CNCc2cccs2)ccc1OCc1ccccc1,3,6,4%,-42,1.0,
CCOC(=O)C1(Cc2ccccc2)CCCN(Cc2ccc(OCC)c(CO)c2)C1 (centres undefined),0,-7,1%,·,-0.6,
COc1cccc(NC(=S)N(CCN(C)C)C(C)c2ccncc2)c1 (centres undefined),·,0,-9%,·,0.5,
CN(c1ccccc1)c1ncccn1,·,-15,·,·,6.1,
Cc1ccc(CNC(=O)CSc2nc(N3CCCCC3)nc(N3CCCCC3)n2)cc1,-12,5,3%,23,-5.0,
CCCc1nnc(NC(=O)CCC(=O)NCCc2ccc(OC)c(OC)c2)s1,1,7,0%,-24,-2.2,
Cc1sc(NC(=O)CN(Cc2ccccc2)C(=O)C2CC2)c(C(N)=O)c1C,-9,-6,-5%,·,-2.8,
COC(=O)C(O)(c1ccc2c(c1)CCCN2)C(F)(F)F (centres undefined),1,2,-8%,-10,1.0,
O=C(CCCn1c(=O)[nH]c2ccsc2c1=O)N1CCCCC1,4,6,-8%,-45,·,
CCS(=O)(=O)N1Cc2ccccc2CC1C(=O)NCCc1ccccc1 (centres undefined),·,-4,·,·,1.2,
CC[n+]1c(/C=C/C=C/c2ccc(N(C)C)cc2)sc2ccccc21,·,1,7%,·,-2.9,

# Assay outcomes (PubChem BioAssay)
